Screening results (PubChem BioAssay)
Calb FLC – C. albicans growth modulation with fluconazole. growth inhibition, % (no concentration beside the values). 300,000 tested, 0.57% active. C. albicans CaCi-2 (fluconazole-resistant clinical isolate) + fluconazole, Alamar Blue growth, 48 h;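 active = most replicates above 75%; inconclusive = exactly half above 75%; inactive = most below 75%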;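 also: all wells also contain fluconazole at 8 µg/ml as a sub-toxic cotreatment; 0% = median of DMSO wells and 100% = median of geldanamycin control wells; wells of about 8 µL received 7.5 nL stock; the first replicate is given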
RanGTP-Impb inh – disruptors of Ran-importin-beta complex formation – biochemical, FRET, CFP-Ran, YFP-importin-beta, homogeneous, primary screen | inhibition, % (concentration not given with the values) | cell-free CFP-Ran/YFP-importin-beta FRET ratio | AID 2216 | 300,000 tested, 1.1% active;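 active = most replicates above 15%; inconclusive = exactly half above 15%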;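 also: 0% = DMSO wells and 100% = Ran loaded with GDP instead of GTP; wells of about 40 µL received 100 nL stock; the first replicate is given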
T cruzi repl – T. cruzi replication inhibition | inhibition, % (no concentration beside the values) | AID 1885 | T. cruzi beta-gal in NIH3T3, luminescence, 90 h | 300,000 tested, 1.4% active;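 active = mean inhibition across valid replicates above about 55%, limit read from the data; inconclusive = mean below that limit but half or more replicates reach it; inactive = mean below it, under half of replicates reach it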;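 also: signal also drops with host cell toxicity which is not excluded here; 0% = plate median of DMSO wells and 100% = zero luminescence signal; higher percent means less beta-gal luminescence so fewer parasites; stock transfer was 50 nL into about 50 µL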
Beta2AR agonist – agonists of human beta-2 adrenergic receptor inducing internalization; P07550; Am2.2-beta2AR cells, FAP receptor internalization, flow cytometry; reference of the scale not given here; response, % (concentration not given with the values); 340,000 tested, 0.43% active;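 active = response above a set limit, near 3 SD of response in nonfluorescent compounds, cut at about 42% in these data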;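 also: stock transfer was 100 nL into about 11 µL; a reference agonist was the positive control; negative values mostly stem from fluorescent compounds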
Target sequence (P07550 whole entry, looked up): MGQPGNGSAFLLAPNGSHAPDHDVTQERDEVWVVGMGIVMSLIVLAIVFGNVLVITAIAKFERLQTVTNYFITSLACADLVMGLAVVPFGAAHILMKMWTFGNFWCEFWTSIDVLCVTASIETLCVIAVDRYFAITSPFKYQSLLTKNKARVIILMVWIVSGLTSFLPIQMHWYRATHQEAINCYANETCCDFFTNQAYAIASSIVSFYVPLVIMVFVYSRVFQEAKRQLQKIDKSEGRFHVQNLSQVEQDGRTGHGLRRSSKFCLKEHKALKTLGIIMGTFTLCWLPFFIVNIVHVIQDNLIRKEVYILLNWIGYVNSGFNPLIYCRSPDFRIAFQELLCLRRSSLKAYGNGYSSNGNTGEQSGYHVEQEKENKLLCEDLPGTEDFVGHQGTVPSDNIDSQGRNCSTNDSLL
A1 inh – inhibitors of the anti-apoptotic protein A1, read as caspase activation; 330,000 tested, 0.066% active; MEF A1-2A-BIM cells, Caspase-Glo 3/7 luminescence, 3 h; percent of clofoctol response, vehicle zero; caspase activation, % (test concentration not listed);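 active = over half of replicate activation scores above 10%, or exactly half above 10 with the replicate mean above 10; inconclusive = replicate mean below 10 yet half the replicates above 10; inactive = over half of replicates below 10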;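 also: wells of about 30 µL received 50 nL stock; many hits fall short of the cut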
LANA-H2B inh – blocks KSHV LANA binding to histone H2A/H2B; 320,000 tested, 0.6% active; cell-free LANA-H2A/H2B peptide, fluorescence polarization; Q9QR71; inhibition, % (test concentration not listed); in the data active = inhibition mostly above about 10%, no sharp cut-off; inactive = mostly below about 6.7%;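 also: stock transfer was 7.5 nL into about 10 µL; 0% = median of vehicle wells and 100% = median of positive control wells; one replicate is shown; the record names a cut of 25% in any replicate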
UCH37 inh – human UCH37 deubiquitinating enzyme inhibition; Q9Y5K5; purified proteasome/UCH37, Ub-AMC cleavage fluorescence; inhibition, % (concentration not given with the values); 330,000 tested, 0.33% active; AID 588478;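 active = mean of two replicates above 20%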;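 also: 0% = compound-free wells with enzyme and 100% = wells lacking proteasome; stock transfer was 100 nL into about 20 µL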
Target sequence (Q9Y5K5 whole entry, looked up): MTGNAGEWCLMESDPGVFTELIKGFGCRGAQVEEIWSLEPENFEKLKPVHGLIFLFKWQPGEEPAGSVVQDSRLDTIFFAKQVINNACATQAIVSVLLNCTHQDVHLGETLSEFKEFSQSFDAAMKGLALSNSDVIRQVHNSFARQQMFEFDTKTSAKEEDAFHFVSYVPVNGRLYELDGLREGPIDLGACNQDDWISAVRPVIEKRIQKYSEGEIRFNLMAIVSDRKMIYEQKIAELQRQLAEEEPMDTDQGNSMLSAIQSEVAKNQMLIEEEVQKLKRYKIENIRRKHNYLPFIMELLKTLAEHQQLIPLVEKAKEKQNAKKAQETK
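Material: human UCH37 enzyme supplied as purified proteasome complex / Amount: 0.15 nM proteasome as dispensed / Buffer or medium: pH 7.4 Tris-HCl (50 mM) with ovalbumin, ATP-MgCl2, DTT / Times: preincubation 30 min, reaction 25 min, room temperature / Technique: AMC fluorescence from Ub-AMC cleavage, excitation 355 nm, emission 460 nm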
Beta cell apopt – blocks beta cell apoptosis | INS-1E cytokine-induced death, ATP luminescence, 48 h; percent of positive-control rescue, neutral wells zero | protection from apoptosis, % (no concentration beside the values) | 300,000 tested, 0.8% active | AID 435005;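 active = all replicates at 75% or more, or half of them and the mean; inconclusive = half reach 75% but not the mean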;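 also: 0% = cytokine-treated negative control wells and 100% = positive control rescue; higher means more ATP so stronger rescue from cytokine killing; wells of about 40 µL received 100 nL stock; the first replicate is given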
Active calls of the source: *; i = inactive; ? = inconclusive; . = not tested or not shown.

SMILES	Calb FLC	RanGTP-Impb inh	T cruzi repl	Beta2AR agonist	A1 inh	LANA-H2B inh	UCH37 inh	Beta cell apopt
COc1ccc(C)cc1Nc1nc(-c2c[nH]c3ccccc23)cs1	10	-4.3	0	-22	-0.2	11	-7.3	4
COc1cc(/C=C(\C#N)C(=O)Nc2cccc(C(=O)O)c2)ccc1OCc1ccc(C)cc1	9	-2.5	3	9	-1.0	0.1	5.3	16
O=[N+]([O-])c1ccc(Oc2cccc(F)c2)c2ccncc12	-32	-1.5	15	0	-0.4	-3.2	2.2	-6
CC1(C(=O)NCc2cccnc2)CCC(=O)N1Cc1cccs1 (stereo not given)	-3	3.4	0	2	-0.9	7.2	1.9	-4
O=C1CC(N2CCSCC2)C(=O)N1c1ccc(F)cc1 (stereo not given)	-2	-0.1	6	-2	0.0	-1.2	0.7	-4
O=C(NCC1CC1)c1onc(CSc2ccncc2)c1C(=O)NCC1CC1	0	1.0	-11	-12	1.3	3.6	2.0	-2
Cc1ccc(CNC(=O)CSCc2ccccc2)cc1	-1	?	-12	-9	-0.1	1.0	1.1	-6
COc1ccc(CC2(CO)CCN(Cc3cccc4nccnc34)CC2)cc1	4	-2.6	9	-1	-0.1	0.2	-0.8	-11
Cc1nc(Nc2ccccc2F)c2oc3ccccc3c2n1	5	-1.1	0	9	0.3	1.5	-8.6	7
COCc1cc(C)nc2sc(C(=O)Nc3ccccc3C)c(N)c12	9	4.0	5	-15	0.1	3.9	-21	5
Fc1ccc(N2CCN(Cc3ccccn3)CC2)cc1	3	2.7	-11	-2	0.4	2.4	2.5	-11
COc1ccc(OC)c(NC(=O)Cc2coc3cc(C)cc(C)c23)c1	?	0.9	-7	-6	0.2	-3.0	2.4	-4
O=C(O)Cn1nnnc1-c1ccc(F)cc1	-19	1.0	-25	2	-0.4	-0.6	-0.6	1
Cc1ncsc1CCOC(=O)c1ccccc1	0	-0.9	-16	1	-0.8	0.2	2.1	-4
CCOc1ccc(C(=O)N[C@H](C(=O)Nc2ccccc2OC)C(C)C)cc1	-12	1.5	-6	1	2.2	6.2	5.2	2
Cc1ccc(-c2n[nH]c(=S)n2/N=C/c2c(C)nn(-c3ccccc3)c2C)cc1	45	-1.7	7	-17	0.7	-4.5	.	14
Cc1[nH]c2ccc(Br)cc2c(=O)c1CN1CCOCC1	-1	0.5	-16	17	0.1	-0.2	3.0	-10
COc1cccc(/C=N/NC(=O)c2ccc(N3CCCC3=O)cc2)c1	-4	5.0	-32	-4	-0.1	-6.0	.	39
O=c1c(Cl)c(Nc2cccc(Cl)c2)cnn1-c1nc2ccccc2s1	11	1.2	6	-10	-1.6	1.1	-1.9	-4
O=C(O)C1CCCCN1S(=O)(=O)c1ccccc1 (stereo not given)	-8	-0.8	-8	1	-2.4	-5.6	-0.5	.
N#Cc1ccc2ccn(CC(=O)N3CCCc4ccccc43)c2c1	36	-2.6	-5	4	-0.4	5.2	-7.0	3
O=CN1CCN(C(=O)c2ccc3c(c2)OCO3)CC1	7	6.0	-6	0	0.9	40*	2.9	-3
NC(=O)Cn1c(=O)n(CCc2ccccc2)c(=O)c2c3c(sc21)CCCC3	-7	?	14	-9	-0.2	2.4	3.3	-4
N=c1c2c(-c3ccccc3)c(-c3ccccc3)n(Cc3ccco3)c2ncn1CCN1CCOCC1	-2	-1.3	67*	7	-1.0	0.2	6.9	3
Cc1cccc(NC(=S)NC(=O)CCc2ccccc2)c1	-29	-1.2	11	2	-0.4	3.4	1.2	-11

Copied from the list:
Calb FLC result of Cc1nc(Nc2ccccc2F)c2oc3ccccc3c2n1 is entered as 5
Calb FLC result of O=C(NCC1CC1)c1onc(CSc2ccncc2)c1C(=O)NCC1CC1 is entered as 0

(cont.)
SMILES	Calb FLC	RanGTP-Impb inh	T cruzi repl	Beta2AR agonist	A1 inh	LANA-H2B inh	UCH37 inh	Beta cell apopt
COc1cccc(CNC(=O)CCCn2nc(C)c3c(C)n(-c4ccccc4)nc3c2=O)c1	-9	0.4	1	2	2.5	5.6	-1.8	0
CCCCN(C)CCNC(=O)CN1C(=O)CSc2ccc(S(=O)(=O)N3CCCCC3)cc21	23	0.4	?	-13	-0.2	7.9	.	-8
CCCS(=O)(=O)Nc1c(C(=O)OC)[nH]c2ccccc12	4	-11	-8	1	1.8	1.8	0.0	-9
COc1ccccc1/C=C/C(=O)NNC(=O)c1cc(C)oc1C	-1	1.1	6	10	-0.8	.	-14	3
CCn1c(COc2ccc(Cl)cc2)nnc1SCC(=O)Nc1ccc2c(c1)OCCO2	1	?	-9	1	-1.1	-7.1	1.2	4
COc1c(Br)cc(Br)cc1/C=C1/C(=O)N=C(N)N1C	8	8.3	-9	0	-0.1	-0.4	4.9	-21
COc1ccnc(Oc2ccc(F)cc2)c1C(=O)N/C=N/OCc1cccc(F)c1	-59	0.1	16	2	0.6	-2.3	2.6	7
O=C(CCc1ccccc1)Nc1nc2ccc(S(=O)(=O)N3CCOCC3)cc2s1	15	3.1	5	5	-0.3	3.1	0.0	-1
CCn1nnnc1SCC(=O)N1CCOCC1	0	2.2	-1	4	0.0	0.2	2.8	-1
O=C1NC(=S)S/C1=C1\Sc2ccccc2N1CCCS(=O)(=O)O	0	27*	0	-6	-0.4	-0.8	10	-4
O=C(Nc1ccccc1)NC1(C(=O)NCc2ccco2)CCCCC1	-4	-2.1	-9	9	0.7	2.1	2.4	.
C/C=N\NC(=O)CNC(=O)CNC(=O)c1ccccc1	-23	-5.6	20	4	-0.2	0.0	.	-3
COc1ccc(CCC(=O)NNC(=O)c2cccs2)cc1	.	.	.	-3	-0.4	-3.3	3.3	-1
O=C(O)COc1ccc(-c2nnn(Cc3ccccc3F)n2)cc1	-1	6.6	-15	-5	-0.2	0.6	3.3	0
O=C(Nc1cccc(C(=O)N2CCOCC2)c1)c1ncn[nH]1	1	3.5	-13	-1	0.1	-8.0	2.2	-5
CCC(C)Nc1cc(C)c(C#N)c2nc3ccccc3n12 (stereo not given)	1	6.7	-9	4	0.3	-11	i	7
CCCOc1ccc(N2C(=O)CC(N(CCOC34CC5CC(CC(C5)C3)C4)C(C)=O)C2=O)cc1 (stereo not given)	-10	-1.7	12	-4	-1.3	6.7	1.5	-3
CCNC(=O)Cc1ccc(Br)cc1	3	0.3	-16	1	-0.4	6.0	2.4	-7
COc1ccccc1Nc1nc(-c2sc(NC(=O)C(C)(C)C)nc2C)cs1	4	-1.5	19	5	0.2	-3.1	-2.5	6
CC1CCN(CCCNC(=O)c2n[nH]c(=O)c3ccccc23)CC1	2	3.8	3	0	-0.8	3.0	0.5	.
COc1ccccc1N(C(=O)CNC(=O)c1ccco1)C(C(=O)NC1CCCC1)c1ccncc1 (stereo not given)	-2	-4.8	-14	2	-0.2	1.7	4.7	-10
Cc1ccc(Nc2nc(NCCCN3CCOCC3)nc(N)c2[N+](=O)[O-])cc1C	-2	-5.6	4	3	0.0	.	11	2
CC(CCc1ccccc1)NC(=O)CNc1cccc([N+](=O)[O-])c1 (stereo not given)	2	2.0	11	-1	-0.1	-11	5.3	4
O=C(NC1CCS(=O)(=O)C1)N1CCCCC1 (stereo not given)	13	2.7	-8	2	-0.3	-4.3	2.2	-6
NS(=O)(=O)c1ccc(CNC(=O)C2CCCN2C(=O)c2cccs2)cc1 (stereo not given)	.	.	.	-5	0.3	0.1	2.3	-1
(continued)
SMILES	Calb FLC	RanGTP-Impb inh	T cruzi repl	Beta2AR agonist	A1 inh	LANA-H2B inh	UCH37 inh	Beta cell apopt
CCNS(=O)(=O)c1cc(Br)ccc1OC	-3	-4.0	3	7	-0.4	7.4	3.6	-7
COc1ccc(N(CC(=O)Nc2ccc3c(c2)OCO3)S(=O)(=O)c2ccccc2)c(OC)c1	-6	-0.9	20	2	0.5	1.2	1.2	4
O=C(/C(=C(/[O-])c1ccccc1)[n+]1ccccc1)c1ccc([N+](=O)[O-])cc1	1	0.2	-4	3	0.5	4.6	2.1	12
COc1ccccc1NC(=O)Nc1ncccc1C	0	3.9	-7	-2	-0.5	1.5	.	2
Cc1cc(C)c(NC(=O)CS(=O)CC(=O)N2CCN(c3ccc(F)cc3)CC2)c(C)c1 (stereo not given)	-1	0.4	1	-16	-0.1	-0.5	4.7	4
Cc1ccc(-c2nc3c(=O)n(C)c4ccccc4c3o2)cc1	-5	-0.5	22	-20	0.0	5.4	-97	-4
COc1cc(/C=N/NC(=O)c2c(-c3ccccc3)noc2C)cc(OC)c1OC	-30	-3.1	3	0	0.4	-5.4	.	-6
CCCCN(C(=O)NC(=O)Nc1ccccc1C)S(C)(=O)=O	8	-0.7	6	-1	-0.3	9.9	-2.4	-8
CN(C)c1ccc(/C=C/c2cc[n+]([O-])cc2)cc1	-4	-5.9	-4	.	0.5	-26	.	-6
O=S(=O)(Cc1ccccc1)c1ccccc1-c1nnc(-c2ccccc2)o1	1	4.8	-6	9	-0.1	-4.1	-2.8	-8
CCN(CC)c1ncnc2scc(C3COc4ccccc4O3)c12 (stereo not given)	3	-0.5	-2	-19	0.0	-3.3	0.8	-12
COc1ccc(CNC(=O)C(c2ccncc2)N(C(=O)Cc2cccs2)c2cccc(C)c2)cc1 (stereo not given)	-2	1.7	35	-5	0.0	-2.6	4.2	6
COc1ccc(NC(=O)Cn2nc(C)c([N+](=O)[O-])c2C)cn1	4	2.3	-9	2	-0.6	2.6	1.8	-9
Cc1cc(C)n(-c2ncnc3sc(C)c(C)c23)n1	-3	0.7	-18	0	0.1	5.6	-7.5	2
CCCCOc1ccccc1Cn1c(=O)oc2ccccc21	26	4.6	16	-2	0.1	-3.7	0.0	0
Cc1ccc2cc(C)c(SCC(=O)Nc3cc(C)on3)nc2c1	5	2.3	10	1	0.4	4.7	2.1	6
CCOc1cc2c(cc1OCC)C(C(=O)O)C(c1cc(OC)c(OC)c(OC)c1)N(C)C2=O (stereo not given)	-3	-0.9	2	5	0.8	-0.9	1.7	-2
O=C(Nc1ccn(Cc2c(F)c(F)cc(F)c2F)n1)c1cccc(Cn2cc([N+](=O)[O-])cn2)c1	-17	4.0	31	-10	0.8	2.7	-2.4	1
CCC(ONc1ccccc1C(F)(F)F)(C(=O)NN(C)C)c1ccccc1 (stereo not given)	.	.	.	8	-2.3	-0.6	-1.4	-6
O=C(COC(=O)C1COc2ccccc2O1)NC(=O)Nc1ccc2c(c1)OCCO2 (stereo not given)	2	2.4	-28	2	0.8	-2.2	1.7	-1
CCn1cc(C(=O)OCC(=O)c2cc(C)n(-c3ccc(OC(F)F)cc3)c2C)c(=O)c2ccc(C)nc21	-2	-0.1	5	-1	-0.4	-2.6	4.0	5
O=C(NC1CCCC1)C(c1ccncc1)N(C(=O)Cc1cccs1)c1ccccc1 (stereo not given)	-6	-2.6	-4	1	-0.5	0.0	3.0	-6
CCOc1cc(C2Nc3ccccc3C(=O)N2c2ccccc2)c(Br)cc1OCC(=O)O (stereo not given)	5	-0.6	6	-2	-1.2	0.7	-414	-6
C=CCN(C(=O)CNC(=O)c1ccco1)C(C(=O)NC1CCCCC1)c1ccccc1F (stereo not given)	0	1.3	3	-2	0.0	0.5	4.1	-4
